Vaccinia pol inh: vaccinia E9 polymerase processive synthesis inhibitors, primary screen, biochemical, absorbance; in vitro processive DNA synthesis, absorbance read-out; hits give low values; some inactives read as strong as hits; normalized absorbance, % (test concentration not listed); 0.94% of 46,000 active;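 active = replicate mean up to 90% and picked by the depositor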;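 also: 100% = median of the test wells of a plate; 100 nL library stock went into each well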
* hit, by the source's call.

SMILES | Vaccinia pol inh
CC[N+]1(CC(O)COC2CC(C)CC(C)(C)C2)CCOCC1 (stereo unspecified) | 96
Cc1nc(C(N)=O)c(N)n1C | 100
Cc1cccc(C)c1NC(=O)CSCC(=O)O | 106
CC(=O)Oc1ccc2c(-c3ccccc3)cc(=O)oc2c1 | 87
CC(=O)ON1C(C)(C)CC(OC(=O)c2ccco2)CC1(C)C | 99
O=C(Nc1cc(-c2ccc(Cl)cc2)[nH]n1)C1Cc2ccccc2C1 | 90
O=C(CC1(O)C(=O)N(Cc2ccccc2)c2ccccc21)c1ccncc1 (stereo unspecified) | 97
CC(C)(Br)C(=O)Nc1nccs1 | 98
Cc1cccnc1/N=C/c1c(O)c2ccccc2oc1=O | 100
O=C(c1ccccc1)c1nccn1-c1ccc(Cl)nn1 | 101
CC(=O)N1c2ccccc2C(C)(c2ccccc2)CC1(C)C (stereo unspecified) | 100
N#Cc1c(-c2ccccc2)cc(-c2ccccc2)nc1N | 100
Cc1ccc(S(=O)(=O)CC(c2ccccc2)N2CCOCC2)cc1 (stereo unspecified) | 100
O=C(O)C1CCCN1S(=O)(=O)c1cccs1 (stereo unspecified) | 99
Cc1ccc(-c2nn(CCC#N)cc2CO)cc1 | 101
COc1ccccc1-c1[nH]ncc1CNCCc1ccccc1 | 104
CCc1cc2c(=O)c(-c3nc(C)cs3)coc2cc1O | 100
C=CCN1COc2c(ccc3c(C(=O)OCC)c(NC(=O)c4ccccc4)sc23)C1 | 99
O=C(CSc1nc2scc(-c3ccccc3)c2c(=O)[nH]1)c1ccccc1 | 90
CCSc1nnc(C)c(=O)[nH]1 | 102
CC(=O)N1[C@@H](c2ccc(F)cc2)SC[C@H]1C(=O)O | 97
COc1ccc(Cc2cnc(NC(=O)Cc3ccccc3)s2)cc1 | 92
O=c1[nH]c2c(s1)C(c1ccco1)C1C3CCC(C3)C1S2 (stereo unspecified) | 99
N#Cc1c(NC(=O)C(F)(F)F)sc2c1CCCC2 | 96
COc1ccc2c(c1)cc1n2CCN2CCN=C12 | 76
CSc1nsc(SCc2ccc(C(=O)Nc3ccc(Cl)cc3)cc2)n1 | 100
CN(C)CCN(Cc1ccccc1)CC1CC2C=CC1C2 (stereo unspecified) | 100
N#Cc1ccc(Cl)cc1NC(=O)CSc1ccccn1 | 92
CCN(CC)C(=O)c1cccc(C(=O)N(CC)CC)c1 | 101
N#CCc1ccc(C(=O)c2cccs2)s1 | 104

4 entries drawn at random from the list so far, as already listed:
SMILES | Vaccinia pol inh
N#CCc1ccc(C(=O)c2cccs2)s1 | 104
C=CCN1COc2c(ccc3c(C(=O)OCC)c(NC(=O)c4ccccc4)sc23)C1 | 99
CSc1nsc(SCc2ccc(C(=O)Nc3ccc(Cl)cc3)cc2)n1 | 100
N#Cc1c(NC(=O)C(F)(F)F)sc2c1CCCC2 | 96

Next records follow:
SMILES | Vaccinia pol inh
Cc1cccc(OCCCC(=O)O)c1 | 100
O=C(c1ccccc1Cl)N1CCC(n2cccc2)CC1 | 95
CCOC(=O)c1ccc2nc(C34CC5CC(CC(C5)C3)C4)ccc2c1 | 100
FC(F)(F)c1cc(/C=C/c2noc(CN3CCCCCC3)n2)cc(C(F)(F)F)c1 | 112
CC1CCN(C(=O)C2CCN(CC3CCCCC3)CC2)CC1 | 102
CSc1nc(C)nc(N/C=C(\C#N)S(=O)(=O)c2ccc(C)cc2)n1 | 93
CCc1ccc(NC(=O)CN(C)S(=O)(=O)c2ccc3nc(-c4ccccc4)[nH]c3c2)cc1 | 108
CC(=O)Nc1cc(C(=O)N2CCN(C)CC2)ccc1S(=O)(=O)c1ccc(C)cc1 | 108
c1coc(CNCc2cccc3ccccc23)c1 | 100
Cc1ccc(C(C)C)c(OCC(O)CN(C)Cc2ccccc2)c1 (stereo unspecified) | 106
N#C/C(=C\Nc1cc(C(F)(F)F)cc(C(F)(F)F)c1)S(=O)(=O)Cc1ccc(Cl)cc1 | 97
CC(=O)NS(=O)(=O)c1ccc(N=Cc2ccco2)cc1 | 83
CC(=NCc1cccnc1)C1=C(O)c2ccccc2C1=O | 95
Cc1csc(NC(=O)CSc2ccc(Cl)cc2)c1C(N)=O | 89
O=C(CSc1c(-c2ccccc2)c2cc(Cl)ccc2[nH]c1=O)NCc1ccco1 | 100
O=C(Nc1ccc2nonc2c1)N1CCOCC1 | 75
O=C(O)CCC1COc2ccccc2O1 (stereo unspecified) | 99
COC(=O)Cc1nc(-c2cccs2)no1 | 77
COc1ccc(/C=C(/C#N)c2ccc(Cl)cc2)cc1OC | 101
O=C(O)c1ccccc1-c1nc2ccccc2[nH]1 | 99
CC(C)N1C(=O)C(C#N)C2(CCNCC2)C(C#N)=C1S (stereo unspecified) | 100
O=C(COC(=O)C1CC2C=CC1C2)NCc1ccco1 (stereo unspecified) | 95
O=C(CC12CC3CC(CC(C3)C1)C2)Nc1ccc2[nH]c(=O)[nH]c2c1 | 94
N#Cc1ccsc1NC(=O)C1CC1 | 102
O=C(Nc1ccc(S(=O)(=O)NC23CC4CC(CC(C4)C2)C3)cc1)C1CC1 | 105
Cc1ccc(C(=O)NCC(=O)O)cc1C | 100
CC1CCN(c2nc(Cc3ccc(Cl)cc3Cl)nc3c2nnn3C)CC1 | 102
O=C(COC(=O)Cc1ccsc1)Nc1ccccc1C(F)(F)F | 90
Oc1ccccc1CNc1cnc2ccccc2c1 | 103
ClC1(Cl)CC1Cn1cnc2ccccc21 (stereo unspecified) | 111

12 entries from above, sorted by molar mass, descending.
SMILES | Vaccinia pol inh
CCc1ccc(NC(=O)CN(C)S(=O)(=O)c2ccc3nc(-c4ccccc4)[nH]c3c2)cc1 | 108
O=C(CSc1c(-c2ccccc2)c2cc(Cl)ccc2[nH]c1=O)NCc1ccco1 | 100
CC(=O)Nc1cc(C(=O)N2CCN(C)CC2)ccc1S(=O)(=O)c1ccc(C)cc1 | 108
O=C(COC(=O)Cc1ccsc1)Nc1ccccc1C(F)(F)F | 90
O=C(Nc1cc(-c2ccc(Cl)cc2)[nH]n1)C1Cc2ccccc2C1 | 90
CC1CCN(C(=O)C2CCN(CC3CCCCC3)CC2)CC1 | 102
O=c1[nH]c2c(s1)C(c1ccco1)C1C3CCC(C3)C1S2 (stereo unspecified) | 99
CCc1cc2c(=O)c(-c3nc(C)cs3)coc2cc1O | 100
CN(C)CCN(Cc1ccccc1)CC1CC2C=CC1C2 (stereo unspecified) | 100
Cc1cccnc1/N=C/c1c(O)c2ccccc2oc1=O | 100
COc1ccc2c(c1)cc1n2CCN2CCN=C12 | 76
c1coc(CNCc2cccc3ccccc23)c1 | 100

Next compounds.
SMILES | Vaccinia pol inh
CCCN(CCC)S(=O)(=O)c1ccc(C(=O)Nc2ccc(F)cc2F)cc1 | 107
CC(C)CCNC(=O)c1cc2c(s1)CSC2 | 102
Cc1ccc(N2CC(C(=O)O)CC2=O)cc1C (stereo unspecified) | 99
COC(=O)c1cc(NS(=O)(=O)c2ccccc2)cc(C(=O)OC)c1 | 100
COC(=O)c1ccc(-c2ccc(C(=O)N3CCCN(C)CC3)cc2)cc1 | 105
c1ccc(-c2nnc(SCC3COc4ccccc4O3)nc2-c2ccccc2)cc1 (stereo unspecified) | 101
O=C(CSc1nnnn1-c1ccccc1F)N1c2ccccc2Sc2ccc(Cl)cc21 | 97
CN(C)/C=N/c1nnc(N2CCN(c3cccc(Cl)c3)CC2)s1 | 99
CCc1nnc(NC(=O)c2ccc(S(=O)(=O)N3CCCC3)cc2)o1 | 98
Cc1cc(C)cc(N2C(N)=NC(N)=NC2c2cccc(Cl)c2)c1 (stereo unspecified) | 93
O=C(O)/C=C/c1ccc(C(F)(F)F)cc1 | 100
O=C(c1ccccc1)c1cc2ccc(O)cc2oc1=O | 102
C[N+]12CCC(CC1)C(OC(=O)C(O)(c1ccccc1)c1ccccc1)C2 (stereo unspecified) | 98
CCc1ccc(OCC(=O)c2ccc(O)c(CN(C)C)c2O)cc1 | 96
COc1ccc(C)cc1NC(=O)CN(C)S(=O)(=O)c1ccc(Br)s1 | 103
CCOC(=O)c1cc(C)sc1N1C(=O)C=CC1=O | 99
CN1CCN(C(=O)c2cc3ccccc3nc2Cl)CC1 | 107
O=C(CSc1nccn1-c1ccc(Cl)cc1)Nc1ccccc1F | 95
O=C(O)/C=C/c1ccc(-c2ccc(Br)cc2)o1 | 98
Cc1ccc(CC2(O)CC(C)N(C)CC2C)cc1 (stereo unspecified) | 93
O=C(NCCN1CCOCC1)c1c(O)c2ccccc2[nH]c1=O | 90
Cc1nc(-c2cccc(NC(=O)c3cc4ccccc4oc3=O)c2)cs1 | 101
CCOC(=O)/C=C\c1cn(-c2ccccc2)nc1-c1ccccc1 | 107
Cc1ccc(Cn2cc3c(n2)-c2c(oc(C(=O)NCCCN4CCCCCC4)c2C)CC3)cc1 | 104
CSC(=Nc1ccccc1C(F)(F)F)N1CCCC1 | 101
CCOc1cc(/C=C2/SC(=S)N(C(C(=O)O)c3ccccc3)C2=O)ccc1O (stereo unspecified) | 87
O=C(CS(=O)(=O)c1cn(Cc2ccc(Cl)cc2)c2ccccc12)N1CCc2ccccc21 | 94
CC1CCC(NC(=O)CN2C(=O)CSc3ncccc32)CC1 (stereo unspecified) | 105
CC1CN(S(=O)(=O)c2ccc(N3C(=O)CC4(CCCC4)C3=O)c(Cl)c2)CC(C)O1 (stereo unspecified) | 101
COc1ccc(C(=O)OCC(=O)n2c(C)c(C)c3ccccc32)cc1 | 99
O=C(CCSc1ccccc1C(=O)O)Nc1ccc(F)cc1 | 95
COc1ccccc1C1C2=C(CCCC2=O)Nc2ccc3ncccc3c21 (stereo unspecified) | 100
CCn1c(=O)cc(SCC(=O)NCCc2ccc(C)cc2)c2ccccc21 | 94
CC(C)(C)CC(=O)NCc1cn2ccsc2n1 | 104
Cc1ccc(C(=O)c2c(N)sc3c2CCC3)cc1 | 98
O=S(=O)(Nc1ccc(Oc2ncnc3cc(Cl)ccc23)nc1)c1ccc(-c2ccccn2)s1 | 79
CC[C@H](C)C(=O)O[C@H]1CCC=C2C=C[C@H](C)C(CCC3C[C@@H](O)CC(=O)O3)[C@H]21 (stereo partly specified) | 91
COc1cccc(C2C3=C(CC(C)(C)CC3=O)NC3=C2C(=O)CC(C)(C)C3)c1 | 102
O=C1NC(=Nc2cccc(Cl)c2)S/C1=C/c1cccs1 | 115
COC(=O)c1ccc(-n2c(C)ccc2C)cc1 | 98
CCOc1cccc2cc(C(=O)Nc3ccc(Cl)cc3Cl)c(=O)oc12 | 101
CSc1nnc(-c2c[nH]c3ccccc23)n1-c1ccc(F)cc1 | 100
CN(C)/C=N/c1nnc(SCC(=O)c2ccc(F)cc2)s1 | 93
Cc1noc(C)c1NC(N)=O | 96
O=C(NCCSc1nnnn1-c1ccccc1)c1ccccc1 | 101
Cc1ccccc1-c1nc(CS(=O)(=O)CC(=O)NCc2ccc3c(c2)OCO3)c(C)o1 | 95
O=S(=O)(c1ccccc1)c1cccc(S(=O)(=O)N2CCOCC2)c1 | 100
O=C(Cc1ccccc1)NCCc1c[nH]c2ccccc12 | 100
CCCC1C(C#N)=C(N)SC(N)=C1C#N | 106
COc1ccc(NS(=O)(=O)c2ccc(N3C(=O)CC4(CCCC4)C3=O)c(Cl)c2)c(OC)c1 | 102
CCOc1ccc(S(=O)(=O)/N=C(\N)c2ccccc2)cc1 | 100
CNC(C)c1ccc2c(c1)OCCO2 (stereo unspecified) | 101
O=C(NCc1ccc2c(c1)OCO2)C1CCCCC1 | 100
Cc1ccc(Cl)cc1NC(=O)COC(=O)c1n[nH]c2ccccc12 | 93
Cn1c(-c2ccccc2)n[nH]c1=S | 101
COc1ccc(/C=C(\C#N)c2ccc(OC)cc2)cc1 | 72
Cc1cccc(NC(=O)C23CC4CC(C2)CC(n2nnc(C)n2)(C4)C3)c1 | 100
CCN(CC)Cc1c(C)[nH]c2ccccc2c1=O | 94
CCN(CC)c1nc(NC(C)(C)C)nc(NC(C)(C)C)n1 | 100
COc1ccc(NC(=O)c2cc3ccc(O)cc3oc2=Nc2ccc(C(=O)O)cc2)cc1 | 100

Remaining list, next part.
SMILES | Vaccinia pol inh
Clc1cc(N=Cc2cccnc2)ccc1N=Cc1cccnc1 | 104
CCN(CC)c1nc(C#N)nc(OC)n1 | 100
Cc1ccc(-c2n[nH]n3c2nc(=O)c2ccccc23)cc1 | 103
CNC(=O)/C(=C\c1ccco1)NC(=O)c1ccccc1 | 96
COc1ccc(N/C=C2/Sc3ccccc3NC2=O)cc1 | 107
CC(=O)OCOC(c1ccc2ccccc2c1)P(=O)(OCOC(C)=O)OCOC(C)=O (stereo unspecified) | 99
C1=C(c2ccccc2)N2CCCCN=C2S1 | 87
Cc1nc(C(F)(F)F)ccc1C(=O)Oc1ccc(OC(F)(F)F)cc1 | 102
COc1ccc(Nc2cc(C)nc(-c3ccccc3)n2)cc1 | 99
COc1cc2oc(=O)c3c(c2cc1Cl)CCC3 | 101
COc1ccc(CCNC(=O)c2nc(S(C)(=O)=O)ncc2Cl)cc1OC | 87
NC(=O)C1CCN(CC(O)COc2ccc(F)cc2)CC1 (stereo unspecified) | 107
O=c1[nH]c2ccccc2cc1-c1noc(-c2ccccc2)n1 | 97
CC(C)c1nc2ccccc2n1CCCOc1ccccc1 | 100
CC(C)N=C(Nc1ccc(Cl)cc1)c1cccnc1 | 93
O=C(CN1C(=O)c2cccc3cccc1c23)N(Cc1ccccc1)Cc1ccccc1 | 96
CCc1nc(NCCN2CCOCC2)c(C#N)c2c1CCCC2 | 101
Cc1ccc(SC(CC(=O)c2ccc(C(C)(C)C)cc2)C(=O)O)cc1 (stereo unspecified) | 95
CCOC(=O)c1cn(CC)c2cc(F)c(F)cc2c1=O | 100
COC(=O)c1cnn2c1NCN(Cc1ccccc1)C2 | 98
CCc1ccc(NS(=O)(=O)c2ccc3c(c2)CCCN3C(C)=O)cc1 | 100
O=C(Nc1ccc(-n2nncc2-c2ccccc2)cc1)c1cccs1 | 100

From PubChem BioAssay

This is a subset; rates above refer to the full screens.
